TRPV1 PAM – enhances activation of the human vanilloid receptor TRPV1 | Q8NER1 | TRPV1-expressing cells, Fluo-8 calcium influx, capsaicin EC20 potentiation; host cell line not named in the record; control for the full effect not named in the record | potentiation, % at 8.33 µM | 0.02% of 320,000 active; active means potentiation above 80%; inconclusive means 30% to 80%; inactive means below 30%; note: 0% is about no effect
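Cells expressing TRPV1 were dye-loaded with Fluo-8 and read kinetically: 10 s baseline, 3 min after compound (agonist portion), then 2 min after EC20 capsaicin (allosteric enhancer portion). Calcium-bound dye fluorescence at 480/520 nm.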
D2 PAM – positive allosteric modulators of human D2 dopamine receptor; potentiation, % (no concentration beside the values); 0.23% of 360,000 active; DiscoveRx D2 beta-arrestin cells, luminescence, 90 min; 100% = 57 uM dopamine signal; P14416; AID 624464; active = potentiation of 50% or more; inconclusive = 30% to 50%; inactive = 30% or less;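 note: compound concentration not given in the record; tested on top of an EC20 dose of dopamine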
Target sequence (P14416 whole entry, looked up): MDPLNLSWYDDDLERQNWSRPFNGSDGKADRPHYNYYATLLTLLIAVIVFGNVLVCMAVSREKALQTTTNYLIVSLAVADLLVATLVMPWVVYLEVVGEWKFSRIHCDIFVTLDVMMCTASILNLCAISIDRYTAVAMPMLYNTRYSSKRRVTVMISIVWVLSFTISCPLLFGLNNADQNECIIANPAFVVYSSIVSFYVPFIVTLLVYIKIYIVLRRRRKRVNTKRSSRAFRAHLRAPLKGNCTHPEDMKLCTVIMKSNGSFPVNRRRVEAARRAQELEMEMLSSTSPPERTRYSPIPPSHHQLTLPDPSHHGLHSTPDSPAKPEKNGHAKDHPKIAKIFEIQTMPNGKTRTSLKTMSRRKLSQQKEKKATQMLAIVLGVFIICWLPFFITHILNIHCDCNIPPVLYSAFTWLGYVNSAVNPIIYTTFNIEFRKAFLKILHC
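D2 cells co-treated with compound plus 50 nM dopamine (EC20) for 90 min at 37 deg C to detect potentiation. Beta-arrestin recruitment was read as enzyme-fragment luminescence after 1 h at ambient temperature. Full response was set by 57 uM dopamine.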
Sfp inh – Sfp phosphopantetheinyl transferase inhibition. Q9F4F7. Potency, µM, for the others: max response, negative = inhibition, most hits filed as inhibitors. Biochemical Sfp PPTase activity, qHTS. 3.5% of 310,000 active. AID 1490; active = well fitted inhibition curve with a large enough effect; inconclusive = small, poorly fitted or top-dose-only effect, or another doubt; inactive = no such curve, though single readings can be large or run the other way;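 note: the enzyme is Sfp with the accession as filed and its product quenches rhodamine fluorescence; potency is the fitted concentration of half-maximal effect; 0% = enzyme reaction without inhibitor and -100% = no enzyme wells; top concentration of the series not given in the record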
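After 15 min at room temperature with compound, 15 nM Sfp received 5 uM rhodamine-CoA plus 12.5 uM BHQ-2-ybbR (50 mM Hepes pH 7.6, 10 mM MgCl2). Rate came from the fluorescence difference over 30 min, ex 525/em 598 nm.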
Six1-Eya2 inh – blocks human Six1 binding to Eya2; Q15475+O00167; AlphaScreen GST-Six1/His-Eya2 binding, biochemical; active compounds read low; control for the full effect not named in the record; activity change, % (test concentration not listed); 0.56% of 360,000 active; in the data active = activity change below about -65%; inconclusive = about -30% to -65%; inactive = above about -30%; note: % is set by controls: 0 for no effect and ±100 for the full control effect
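Homogeneous AlphaScreen proximity assay pairing GST-Six1 with His-tagged Eya2 (added as 5X mix: 250 nM and 500 nM) in 50 mM Tris pH 8.0, 300 mM NaCl, 1 mM TCEP. Glutathione donor and nickel acceptor beads; 1 h, 37 °C, dark.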
CtBP-E1A inh – blocks the CtBP interaction with E1A. AlphaScreen GST-E1A/His-CtBP binding, 1536-well; active compounds read low; control for the full effect not named in the record. activity change, % (test concentration not listed). 0.49% of 340,000 active. AID 651724; in the data active means activity change below about -65%; inconclusive means about -30% to -65%; inactive means above about -30%; note: % is set by controls: 0 for no effect and ±100 for the full control effect
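Homogeneous bead-based format: GST-tagged E1A captured on glutathione donor beads, His-tagged CtBP on nickel acceptor beads; compounds precede bead addition by 2 h at 37 °C.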
PINK1 modulator – changes PINK1 expression | PINK1 immunofluorescence, high-content cytometry, 24 h | Potency, µM (doses to about 76.6 µM), for the others: at the highest dose activation (PINK1 increase), hits mostly activators | 0.2% of 410,000 active | AID 624263; active = well fitted activation curve with a large enough effect; inconclusive = small, poorly fitted or top-dose-only effect; inactive = flat fitted curve, though single readings scatter; cell line not stated here;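 note: potency is the fitted concentration of half-maximal effect; % of control where 0% means no effect; nearly all actives have a fitted effect of over 65% in size; a mitochondrial uncoupler was the plate control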
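PINK1 protein, normally rapidly degraded, was detected by immunofluorescence after 24 hour compound treatment of a stable cell line. Titration data (5 concentrations) came from laser-scanning cytometry, with CCCP-treated wells as controls.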
D2 ag – human D2 receptor agonism in beta-arrestin assay; P14416; DiscoveRx PathHunter D2 beta-arrestin, luminescence, 90 min; 100% = 57 uM dopamine signal; activation, % (no concentration beside the values); 0.084% of 360,000 active; in the data active = activation above about 40%; inconclusive = about 15% to 40%; inactive = below about 15%; note: compound concentration not given in the record; the text of the record calls up to 30% inactive
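Agonist mode: compounds alone added to overnight-plated D2 PathHunter cells for 90 min at 37 C, with 57 uM final dopamine (EC100) defining full response. Beta-arrestin recruitment detected by chemiluminescent reagent, read after 1 h at ambient temperature.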
Active calls of the source: *; ? = inconclusive; nt = no result given; [ ] = another dose, or the depositor's remark.

Below each SMILES: TRPV1 PAM, D2 PAM, Sfp inh, Six1-Eya2 inh, CtBP-E1A inh, PINK1 modulator, D2 ag
Cc1ccc(OCCC(=O)OCC(=O)NC2CCCC2)cc1
    4, -23, nt, 17, 0, -1.6%, -3.3
CN(c1cccc(Cl)c1)S(=O)(=O)c1cccc(C(=O)NCc2ccncc2)c1
    -16, -9, nt, 4, nt, -0.6%, -5.2
Cc1ccc2c(c1)c1c(n2CC2COC(C)(C)O2)C(=O)CCC1 (centres undefined)
    -6, -6, 0%, 6, 11, 1.4%, -0.4
COc1ccc(C(=O)N2CCCCC2)cc1S(=O)(=O)Nc1cccc(C(=O)O)c1
    24, 7, 5%, 2, -14, nt, -2.2
COc1cccc(/C=N/NC(=O)Cn2cnc3c2c(=O)n(C)c(=O)n3C)c1
    4, 0, 4%, -15, -3, 1.3%, -1.9
NC(=O)Nc1ccc(C(=O)OCC(=O)N2CCCC2=O)cc1
    -5, -5, nt, 2, -2, -2.1%, -5.1
Cc1c(C(=O)O)oc2ccc(S(=O)(=O)NC3CCCCCCC3)cc12
    -15, 8, 13%, -2, 16, 0.7%, 2.0
CC(=O)c1cccc(NC(=O)CSc2nnc(C(C)N(C)C)n2Cc2ccccc2)c1 (centres undefined)
    -7, -2, 7%, -3, 0, 0.6%, 0.3
CCCC1CC(CSC(=N)N)OC1=O (centres undefined)
    2, -8, -2%, 9, 7, 0.1%, -1.9
COc1cc(SC)ccc1C(=O)NCCOc1ccc(C)c(C)c1
    -13, -18, -21%, 2, -11, 2.9%, -3.3
O=C(NCc1ccc(Cl)cc1)C1CCN(S(=O)(=O)c2cccs2)CC1
    6, -5, 2%, -4, 3, 0.4%, 1.2
N=c1c(C(=O)NCc2ccco2)cc2c(=O)n3ccccc3nc2n1Cc1ccccc1
    9, -32, 2%, -6, -3, 1.5%, -3.3
CCOC(=O)C1CCCN(C(=O)c2cc(-c3ccccc3)nc3ccccc23)C1 (centres undefined)
    -13, -10, -15%, 4, 9, -1.0%, 0.7
CN(Cc1ccccc1N1CCCC1)C(=O)c1cc2ccccc2o1
    nt, -7, nt, -25, -25, 13%, 3.7
O=C(/C=C\c1ccco1)NC(=S)Nc1ccccc1O
    20, -13, ?, -13, -11, 3.4%, -5.2
Cc1ccccc1OCCC(=O)OCC(=O)Nc1c(C)nn(-c2ccccc2)c1C
    -20, -11, nt, 6, -19, 1.8%, -0.8
Cc1cc(C)cc(NC(=O)Nc2cc(-c3ccccc3)nn2C)c1
    -21, -11, -18%, 0, 0, 8.6%, -4.2
CN(C(=O)c1cccc(NC(=O)Cc2ccc(NC(=O)C3CCN(C(=O)C4CCCCC4)CC3)cc2)c1)C1CC1
    nt, -1, nt, 5, -4, -0.9%, 0.2
COc1ccccc1NC(=O)CCNS(=O)(=O)c1ccc2[nH]c(=O)oc2c1
    19, -9, 18%, 0, 0, 1.3%, 1.1
COc1cc(C(=O)NCC(c2ccco2)N(C)C)cc(OC)c1OC (centres undefined)
    5, -38, -3%, 1, 2, -1.1%, -0.1
Cc1ccnc(N2CCC(C(=O)NC3CCCCCC3)CC2)n1
    18, -3, 0%, 4, 6, 25%[38.3 µM], -3.2
COCCN1Cc2cccc(C(=O)NCc3ccccc3OC)c2C1=O
    12, -9, 7%, 3, 2, 0.1%, -4.8
O=C(CCC1CCCN(C(=O)c2ccc3cc[nH]c3c2)C1)N1CCN(c2ccccn2)CC1 (centres undefined)
    8, -4, 25%, 2, 4, -1.1%, -2.5
CC(C)n1cnc2c(NCc3ccccc3)nc(NCc3ccccc3)nc21
    -7, -65, 2%, 0, -14, 14%, -2.1
Cc1cccn2c(=O)c3cc(C(=O)N(C)C)n(C)c3nc12
    2, 2, 12%, 8, -1, 1.2%, -3.4
COC(=O)[C@@]1(C)[C@H]2C(=O)N(Cc3ccccc3)C(=O)[C@H]2[C@H]2CN=C(SCc3ccc(C)cc3)N21
    nt, -1, nt, 0, 1, -0.3%, -1.2
OC(c1ccc(Cl)c(F)c1)c1ncc(-c2ccccc2Cl)[nH]1 (centres undefined)
    nt, -4, nt, -9, -7, 13%, -1.1
O=C(COc1ccccc1)Nc1ccncc1Cl
    1, -4, 14%, 7, 9, -1.4%, 1.6
CC(=O)c1ccc(OCCCC(=O)NCCc2ccc(C(F)(F)F)cc2)cc1
    -11, -3, -10%, 8, -10, 4.0%, -4.4
COc1cc(/C=C2\C(=O)ON=C2c2ccccc2)cc(OC)c1OC
    14, -10, 50µM*, -2, 2, 2.9%, -0.9
O=S(=O)(Nc1ccc(-c2ccccc2)cc1)c1ccccc1
    nt, -13, nt, -6, -1, 6.1%, -2.6
O=C(CCl)N1CCN(S(=O)(=O)c2ccc3ccccc3c2)CC1
    -2, 0, 14%, 6, 5, -4.2%, -0.6
O=C(CC1C(=O)NCCN1Cc1c(F)cccc1Cl)NCCCOc1cccnc1 (centres undefined)
    -2, -12, 4%, 5, -12, -1.2%, 3.6
Nc1nccc(-c2cccs2)n1
    14, 4, 2%, 2, 1, 1.8%, -2.1
O=C(NC1CC2CCCC(C1)N2Cc1ccccc1)c1ccc([N+](=O)[O-])cc1 (centres undefined)
    -1, -4, 17%, -5, 7, -0.8%, 0.7
CN(C)S(=O)(=O)c1cccc(NC(=O)COC(=O)/C=C/c2ccc(Br)o2)c1
    30, -9, ?, -4, -6, 4.3%, -3.1
O=C(NC12CC3CC(CC(C3)C1)C2)c1ccc(=O)oc1
    9, 4, 3%, 5, 0, 11%, -1.8
Cc1cccc(NC(=O)COc2ccc(Br)cc2C)n1
    -20, -3, -2%, 22, 12, 4.9%, -2.7
c1ccc2occc2c1
    nt, -3, nt, 3, 2, 1.2%, 0.5
Cc1ccccc1C(=O)NC1CCN(C(=O)Nc2ccc(F)cc2)CC1
    -16, -5, 5%, 4, 4, 0.8%, 0.8
Cc1nnc(SCC(=O)NC2CCCCCC2)n1N
    0, 0, nt, 22, nt, 3.2%, -2.3
CNC(=S)NNc1nc(C)cc(C)n1
    -1, -7, 2.5µM*, 16, 1, -0.8%, -4.5
COc1ccccc1N(CC(=O)NCCSCc1cccc(C)c1)S(=O)(=O)c1ccccc1
    -6, 10, 1%, -15, -2, 2.1%, 5.6
O=C(C1CC1)N1CCc2cc(Br)cc(S(=O)(=O)NCCCN3CCCCC3)c21
    -4, -17, 2%, -29, -1, 1.2%, -6.0
CCC(=O)NCCc1nc2ccccc2n1Cc1ccc(C)cc1
    -32, -9, 14%, 3, 3, 1.2%, -0.7
Cc1ccc(Sc2c(C)nn(C(=O)c3cccc(S(=O)(=O)N4CCOCC4)c3)c2C)cc1
    0, -10, 7%, 21, 47, 25%[38.3 µM], -5.1
Cc1csc2nc(O)c(C(=O)NCCN3CCOCC3)c(=O)n12
    -29, -3, nt, 7, 8, 3.6%, -2.2
CCOC(=O)COc1nc(-c2ccccc2)cc(-c2ccco2)c1C#N
    15, -6, 5%, 43, 37, 1.5%, -3.3
O=S(=O)(c1ccc(NC(=S)N2CCN(c3ccccc3F)CC2)cc1)N1CCOCC1
    -4, -9, 13%, -7, nt, 2.6%, 6.1
CCc1ccccc1NNC(=O)CCc1ccccc1
    -8, -1, 14%, 5, 4, -0.2%, 4.4
CCCCOc1ccc(C(=O)Oc2cccnc2)cc1
    -8, -8, 1%, 5, 3, -0.9%, -1.6
COc1ccc(CCNC(=O)CC(NC(=O)c2ccccc2Cl)c2ccccc2)cc1 (centres undefined)
    1, 6, 2%, 4, 11, -0.7%, -9.5
CCc1nc(Nc2cccc(O)c2)c2oc3ccccc3c2n1
    1, 2, ?, -4, 3, -1.3%, 2.9
Cc1cc(F)c(F)c(C(=O)N2CCOCC2)c1Cl
    2, 11, 12%, -92*, 3, 0.0%, -2.6
COc1ccc(NC(=O)CCNS(=O)(=O)c2cc(Br)cnc2N)cc1OC
    -4, -8, 9%, 1, 5, -0.7%, -0.6
O=C(NCC(=O)N(c1cccnc1)C(C(=O)NC1CCCC1)c1cccs1)c1ccco1 (centres undefined)
    6, 5, 17%, 0, 6, 0.0%, 5.1
CC(=O)n1c(-c2ccccc2)c(-c2ccccc2)n(C)c1=O
    nt, -7, nt, -7, -16, 7.9%, -6.9
COc1ccc(NC(=O)CSc2ccc(-c3cccnc3)nn2)c(OC)c1
    0, 3, 1%, -9, -2, -1.7%, -1.9
Cc1c(NC(=O)[C@@H](NC(=O)c2ccc(Cl)c([N+](=O)[O-])c2)C(C)C)c(=O)n(-c2ccccc2)n1C
    nt, -8, nt, 11, 4, 1.0%, 0.5
CCN(C(=O)c1ccc2c(OC)n(CC)nc2c1)c1ccc(OC)cc1
    21, -3, 12%, 8, 2, -1.2%, 0.6

Pulled by compound from the list above:
Below each SMILES: TRPV1 PAM, D2 PAM, Sfp inh, Six1-Eya2 inh, CtBP-E1A inh, PINK1 modulator, D2 ag
Cc1csc2nc(O)c(C(=O)NCCN3CCOCC3)c(=O)n12
    -29, -3, nt, 7, 8, 3.6%, -2.2
O=C(/C=C\c1ccco1)NC(=S)Nc1ccccc1O
    20, -13, ?, -13, -11, 3.4%, -5.2
O=S(=O)(Nc1ccc(-c2ccccc2)cc1)c1ccccc1
    nt, -13, nt, -6, -1, 6.1%, -2.6
CC(=O)c1ccc(OCCCC(=O)NCCc2ccc(C(F)(F)F)cc2)cc1
    -11, -3, -10%, 8, -10, 4.0%, -4.4

Remaining list, next part:
Below each SMILES: TRPV1 PAM, D2 PAM, Sfp inh, Six1-Eya2 inh, CtBP-E1A inh, PINK1 modulator, D2 ag
O=C1CN(c2ccccc2)C(=S)N1C(=O)c1ccc(Br)cc1
    -13, -9, -29%, 9, 6, 0.1%, 0.1
C=C(C)CSc1nnc([C@@H]2CCCN2C(=O)OC(C)(C)C)o1
    -5, -5, 13%, 1, 0, 2.5%, -1.3
CCOC(=O)C(=CNc1ccc(Oc2cncc(Cl)c2)nc1)C(=O)OCC
    -22, -1, 26%, -2, 4, 0.1%, -2.4
Cn1c(CCCNC(=O)c2cccs2)nc2ccccc21
    0, -27, 19%, 1, 1, -0.8%[38.3 µM], -2.4
Cc1nnsc1C(=O)N/N=C/c1c(F)cccc1Cl
    -4, 9, -4%, 4, 20, -0.2%, -0.6
Cc1ccc(C(=O)NCCCc2ccccc2)s1
    6, -15, -6%, -21, 2, -1.1%, -5.3
O=C1/C(=C/c2ccncc2)SC(=S)N1N1CCOCC1
    -9, -2, 56µM*, 0, -2, 0.7%, -3.2
O=Cc1cnc(N2CCCCC2)s1
    3, -10, 27%, 2, nt, -1.7%, 7.7
CC(C)(C)NC(=O)c1cnn2c1NC(c1ccc(F)cc1)CC2C(F)(F)F (centres undefined)
    -13, 1, 12%, 11, 2, ?, -0.1
CC1CC=C(O)C12OCC(C)(C)CO2 (centres undefined)
    nt, 6, nt, 10, -4, 0.7%, 3.4

Bioassay records as filed in PubChem.
